CSC inhib – cancer stem cell viability inhibitors, primary screen, luminescence; cancer stem cell-like cells viability; inhibition, % at 7.5 µM; 300,000 tested, 1.1% active;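 active means mean at 75% or more and at least half the replicates too; inconclusive means mean and replicates disagree; tested in HMLE shEcad cells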;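 further: 0% = median of negative and 100% = median of positive control wells; the first replicate is given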
Rce1 inh – yeast Rce1p protease inhibitors, primary screen, biochemical, fluorescence, cell-free homogeneous; calls only; CAAX prenyl protease 2 (Saccharomyces cerevisiae (strain ATCC 204508 / S288c)), Q03530; 290,000 tested, 0.27% active; yeast membranes, quenched prenylated peptide cleavage fluorescence;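 active means fall in fluorescence gain of 50% or more versus controls, with final raw signal at or below 3038400; inconclusive means same 50% fall but final raw signal above 3038400; inactive means fall in fluorescence gain under 50%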;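 further: plate controls were neutral control wells for no effect and wells lacking membranes for full effect; tested at 10 µM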
PABP polyA inh – PABP poly(A) RNA binding inhibitors, primary screen, biochemical, fluorescence polarization, uHTS; Polyadenylate-binding protein 1 (Homo sapiens), P11940; inhibition, % at 35 µM; 290,000 tested, 1% active; AID 2014, 2009;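 active means 50% or more with normal probe brightness, or confirmed in later tests; inconclusive means above 50% with abnormal brightness, or retests that disagree; inactive means below 50% or failed in later tests; about a fifth of its hits are not listed in these tables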;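 further: calls also rest on retests at 20 µM and on dose response follow-up; controls were probe without protein and protein plus probe with vehicle; some compounds called inactive have numbers as strong as hits; many hits fall short of the cut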
Target sequence (P11940 whole entry, looked up): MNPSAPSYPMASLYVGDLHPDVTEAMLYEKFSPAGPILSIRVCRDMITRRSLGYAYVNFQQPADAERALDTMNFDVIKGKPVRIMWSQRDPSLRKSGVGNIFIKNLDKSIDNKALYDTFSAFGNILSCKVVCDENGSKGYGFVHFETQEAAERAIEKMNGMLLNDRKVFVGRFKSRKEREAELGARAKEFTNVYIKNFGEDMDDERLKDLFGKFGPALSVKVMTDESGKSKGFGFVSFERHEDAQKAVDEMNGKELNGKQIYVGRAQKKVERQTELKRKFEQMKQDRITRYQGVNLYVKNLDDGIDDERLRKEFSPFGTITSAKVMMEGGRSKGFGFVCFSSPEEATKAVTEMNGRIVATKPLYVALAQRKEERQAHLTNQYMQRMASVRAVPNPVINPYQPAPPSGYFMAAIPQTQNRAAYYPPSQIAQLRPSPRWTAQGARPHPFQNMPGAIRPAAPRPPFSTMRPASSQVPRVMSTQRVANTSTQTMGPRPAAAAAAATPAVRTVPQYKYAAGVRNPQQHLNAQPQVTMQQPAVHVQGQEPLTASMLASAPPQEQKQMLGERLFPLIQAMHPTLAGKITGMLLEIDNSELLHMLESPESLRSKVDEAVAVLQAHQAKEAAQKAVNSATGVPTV
Yeast UUG start – modulators of yeast start codon fidelity, primary screen, whole organism, S. cerevisiae, single point, plate reader; 350,000 tested, 0.13% active; AID 602363, 2012; activity score, % at 18.7 µM; S. cerevisiae UUG-firefly luciferase reporter, luminescence/redox ratio;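 active means replicate mean at a twofold rise or more, about +100% in these data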;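 further: firefly luciferase made from a UUG start codon reports start codon fidelity; reporter light over untreated wells divided by growth signal over untreated wells; some hits fall short of that in this replicate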
Env fusion inh – inhibitors of HIV-1 Env-driven cell-cell fusion, primary screen, HeLa-JRFL effector, CEM21 target cells, luciferase; 360,000 tested, 1.1% active; inhibition, % at 12.3 µM;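 active means mean replicate inhibition score of at least 50 and every replicate individually at or above 50; inconclusive means only one of the two criteria met; inactive means mean below 50 and not all replicates reaching 50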;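 further: 0% = plate neutral controls and 100% = maraviroc near 300 nM; one replicate is shown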
MT1-MMP act inh – blockers of MT1-MMP proenzyme processing, primary screen, HT1080 RFP-PRO-GFP cells, GFP/RFP fluorescence | Matrix metalloproteinase-14 (Homo sapiens), P50281 | GFP/RFP ratio fluorescence, overnight; percent of plate control window, DMSO zero | GFP/RFP ratio change, % at 20 µM | 360,000 tested, 0.061% active | AID 651647, 2012;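 active means GFP/RFP ratio change of at least 30% with cell ATP level not reduced by more than half and red fluorescence within 50% of control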; further: strong numbers were not always called active
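Material: RFP-PRO-GFP reporter HT1080 cells. Dosing: single-point 20 µM compound, 1% DMSO. Controls: DMSO and RFP-L50D-GFP cell wells. Timing: cells overnight before dosing, compound overnight, 37 °C, 5% CO2. Measure: GFP/RFP fluorescence ratio.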
eIF4H FP inh – human eIF4H binding inhibitors, primary screen, translation initiation inhibitor project, biochemical, uHTS, fluorescence polarization | inhibition, % at 35 µM | 290,000 tested, 0.94% active | eIF4H fluorescence polarization binding assay;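 active means 50% or more with normal probe brightness, or confirmed in later tests; inconclusive means above 50% with abnormal brightness, or retests that disagree; inactive means below 50% or failed in later tests; about a fifth of its hits are not listed in these tables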;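 further: calls also rest on retests at 20 µM and on dose response follow-up; 0% = protein and probe with vehicle and 100% = probe without protein; strong numbers were not always called active; many hits fall short of the cut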
MT1-MMP act inh RFP – recorded beside MT1-MMP act inh, whose call it bears; RFP signal change, %; measured here: RFP expression control read;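 0 = vehicle wells; hits needed this value within 50% of zero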
An asterisk follows results filed as active; i = inactive; u = inconclusive; x = no result given. Not all compounds are listed. The share of hits here may be higher or lower than overall.

#1 O=C(/C=C/Nc1ccccc1)c1cnc(-c2ccccc2)s1
#2 COc1ccc(NC(=O)C2CC(c3cccc(Br)c3)=NO2)cc1OC (stereo unspecified)
#3 O=c1c(Cl)c(NCCO)cnn1-c1cccc(Cl)c1
#4 CCCS(=O)(=O)N1CCCC(C(=O)Oc2ccc(C)c(C)c2)C1 (stereo unspecified)
#5 CCOC(=O)c1ccc(NC(=O)N2CCOCC2)cc1
#6 CCOC(=O)N1CCN(S(=O)(=O)c2ccc(C(=O)Nc3sc4c(c3C(=O)OC)CCN(C)C4)cc2)CC1
#7 Cc1ccc(NC(=O)CN2CCCCCC2)cc1[N+](=O)[O-]
#8 CC1CCN(C(c2ccc(N(C)C)cc2)c2nnnn2Cc2ccccc2)CC1 (stereo unspecified)
Assay by compound,1,2,3,4,5,6,7,8
CSC inhib,-20,-12,4,3,-5,16,24,-6
Rce1 inh,i,i,i,i,i,i,i,i
PABP polyA inh,-3,19,-5,1,3,-10,-14,-3
Yeast UUG start,-8,-12,x,-7,x,8,1,-11
Env fusion inh,x,14,-1,-6,-23,-9,4,x
MT1-MMP act inh,-3,0,-2,-1,3,-4,2,-5
MT1-MMP act inh RFP,5,-6,-7,0,3,-5,-7,-9
eIF4H FP inh,2,1,-6,4,-4,5,7,1

#9 CN(Cc1c(F)cccc1Cl)C(=O)c1cc2ccccc2o1
#10 COCCCNc1nc2nonc2nc1N1CCN(Cc2cccc(C)c2)CC1
#11 Cc1cc(-c2ccccc2)nc(=O)[nH]1
#12 CC(C)N(C)c1ncnc2c1ncn2[C@H]1CN(Cc2cccnc2)C[C@@H](CO)O1
#13 Cc1ccc(-c2csc(NC(=O)CSC3=NCCS3)n2)cc1
#14 COc1ccc(CN(C(=O)CNC(=O)c2ccco2)C(C(=O)NCC2CCCO2)c2ccc(OC)c(OC)c2)cc1 (stereo unspecified)
#15 COc1cccc(C(=O)N2N=C(c3ccccc3)CC2(O)C(F)(F)F)c1 (stereo unspecified)
#16 COc1ccc(CCNC(=O)c2ccc(-c3ccc([N+](=O)[O-])cc3)o2)cc1OC
Assay by compound,9,10,11,12,13,14,15,16
CSC inhib,5,0,-21,x,-4,-33,-16,14
Rce1 inh,i,i,x,x,i,i,i,i
PABP polyA inh,18,u,38,x,14,9,1,-2
Yeast UUG start,x,0,x,-16,-13,-3,x,x
Env fusion inh,-13,6,4,19,-70,-8,x,38
MT1-MMP act inh,5,-12,-40,-1,0,2,2,-2
MT1-MMP act inh RFP,-2,-2,2,3,-2,4,-4,-19
eIF4H FP inh,-7,u,1,x,-14,1,-12,-15

#17 COc1cc(C(O)C(=O)O)ccc1O (stereo unspecified)
#18 O=C(CN1CCN(Cc2ccc3c(c2)OCO3)CC1)c1c[nH]c2ccccc12
#19 COc1ccc(NC(=O)CSc2nccn2Cc2ccc(F)cc2)cc1
#20 CC(C)(C)c1ccc(C(=O)N2CCC(C(=O)c3ccccc3)CC2)cc1
#21 COc1ccc(-c2nnc(SCC(=O)NCc3cccs3)n2CC(C)C)cc1
#22 COc1ccc(N(C(=O)c2cnccn2)C(C(=O)NC2CCCCC2)c2ccc(O)cc2)cc1 (stereo unspecified)
#23 Cc1ccc(-c2cc(C(=O)NCCCN3CCCC3)c3ccccc3n2)cc1C
#24 COc1ccccc1NC(=O)C1=C(C)Nc2nnnn2C1c1cccc(Br)c1 (stereo unspecified)
Assay by compound,17,18,19,20,21,22,23,24
CSC inhib,-14,22,-9,x,4,2,-7,5
Rce1 inh,x,i,i,i,i,i,i,i
PABP polyA inh,x,20,3,2,7,5,x,-8
Yeast UUG start,-3,17,-28,-2,-7,x,-18,-9
Env fusion inh,4,x,x,28,x,-14,2,-19
MT1-MMP act inh,2,-4,1,-1,2,2,-1,5
MT1-MMP act inh RFP,3,-1,2,-6,2,2,4,5
eIF4H FP inh,x,-2,-9,5,-3,2,x,6

#25 O=C(NC(=S)Nc1cc([N+](=O)[O-])ccc1O)C1CC1
#26 COc1ccc(C(C)NC(=O)Cc2cccs2)cc1OC (stereo unspecified)
#27 CCOC(=O)c1ccc(-c2ccc(/C=N/NC(=O)CN(c3ccccc3Cl)S(C)(=O)=O)o2)cc1
#28 Cc1sc2nc(SCc3ccccc3)n(Cc3ccco3)c(=O)c2c1C
#29 Fc1cccc(Cc2noc(CN3CCCCC3c3ccccn3)n2)c1 (stereo unspecified)
#30 CCCOC(=O)c1ccc(-c2c(C)noc2-c2ccc(OC)cc2O)o1
#31 Cc1ccc(NC(=O)CN2C(=O)C(C)Oc3ccccc32)nc1 (stereo unspecified)
#32 COc1ccc(CNC(=O)c2ccc(-c3ccc(F)c(F)c3)c3ccoc23)cc1OC
Assay by compound,25,26,27,28,29,30,31,32
CSC inhib,5,3,21,6,10,-14,-11,x
Rce1 inh,i,i,i,x,x,x,i,x
PABP polyA inh,12,11,u,-2,9,-3,-2,x
Yeast UUG start,-22,-7,x,-12,x,-5,-18,12
Env fusion inh,-28,32,-26,-40,-1,x,x,-10
MT1-MMP act inh,-1,-1,-2,-5,2,-7,-4,2
MT1-MMP act inh RFP,-3,5,-10,-2,0,-6,2,-12
eIF4H FP inh,-5,19,3,1,0,-11,-11,x

#33 Cc1cc(C)c2c(CN3CCN(c4ccccc4)CC3)cc(=O)oc2c1
#34 CCC(=O)NC(=S)Nc1ccc(NC(=O)c2ccc([N+](=O)[O-])cc2)cc1
#35 CCn1c(=S)sc2c(=O)n(CC(=O)Nc3cccc(OC)c3)c(C)nc21
#36 COc1cccc(-n2c(CCn3nc(C)c([N+](=O)[O-])c3C)n[nH]c2=S)c1
#37 C/C(=N\NC(=O)CNc1cccc(C(F)(F)F)c1)c1ccc(Br)cc1
#38 CC1CCCC(C(=O)O)N1C(=O)CCSSCCC(=O)N1C(C)CCCC1C(=O)O (stereo unspecified)
#39 O=C(Cn1cnc2c(OCc3ccccc3)ncnc21)NCCCn1ccnc1
#40 Cc1cc(C(=O)Nc2cccc(S(=O)(=O)N3CCOCC3)c2)c2ccccc2n1
Assay by compound,33,34,35,36,37,38,39,40
CSC inhib,x,9,9,11,6,3,-11,22
Rce1 inh,x,i,i,i,i,i,x,x
PABP polyA inh,x,0,-2,6,-11,-7,x,x
Yeast UUG start,-21,x,-22,x,x,-34,-20,9
Env fusion inh,18,13,7,13,0,-9,3,4
MT1-MMP act inh,4,6,-2,4,2,0,6,-4
MT1-MMP act inh RFP,-2,5,-2,3,2,2,6,-5
eIF4H FP inh,x,-6,-2,-7,-6,-5,x,x

Going on with the list.
Second line of a record – CSC inhib, Rce1 inh, PABP polyA inh, Yeast UUG start, Env fusion inh, MT1-MMP act inh, MT1-MMP act inh RFP, eIF4H FP inh
41	Cc1cc(C(F)(F)F)n2nc(-c3cnn(C)c3C(F)(F)F)c(Cl)c2n1
 : -2, i, 1, -10, -92, -7, -5, -5
42	COc1ccc([C@@H](C)NC(=O)c2ccc3oc(C(C)C)nc3c2)cc1
 : -5, i, -4, -14, -53, 0, -1, -4
43	CC1(C)CC(=O)C=C(NCCN2CCN(C(=O)Nc3ccc(Cl)cc3)CC2)C1
 : 2, i, 7, -3, x, 8, 6, -3
44	CCOc1ccc(S(=O)(=O)N2Cc3ccccc3CC2C(=O)NCCCn2ccnc2)cc1 (stereo unspecified)
 : -11, i, 1, -27, 1, 2, 2, -4
45	COc1ccc(Cl)cc1C(=O)N1CCC2(CC1)CC(=O)c1ccccc1O2
 : -8, i, x, x, 6, -3, -4, x
46	CCOC(=O)N1CCN(c2ccc([N+](=O)[O-])cc2)CC1
 : -5, i, -11, x, -21, 3, 2, -4
47	Cc1csc2cc(-c3cccc([N+](=O)[O-])c3)c(-c3cccc([N+](=O)[O-])c3)c[n+]12
 : 15, i, 12, x, -16, -3, 3, -1
48	COc1ccccc1NS(=O)(=O)c1ccc(C(=O)NCCCn2ccnc2)cc1
 : 7, x, x, 14, -7, 0, -4, x
49	COc1cccc(-n2nc(C(=O)Nc3ccc4c(c3)OCO4)c3ccccc3c2=O)c1
 : -4, i, 11, -3, x, 0, -5, 0
50	CCn1c(N)nc2c1c(=O)n(C)c(=O)n2C
 : 7, i, 0, -5, 13, 3, 6, -4

Part of the list above, with bars between the fields:
nr | structure | CSC inhib | Rce1 inh | PABP polyA inh | Yeast UUG start | Env fusion inh | MT1-MMP act inh | MT1-MMP act inh RFP | eIF4H FP inh
46 | CCOC(=O)N1CCN(c2ccc([N+](=O)[O-])cc2)CC1 | -5 | i | -11 | x | -21 | 3 | 2 | -4
47 | Cc1csc2cc(-c3cccc([N+](=O)[O-])c3)c(-c3cccc([N+](=O)[O-])c3)c[n+]12 | 15 | i | 12 | x | -16 | -3 | 3 | -1
48 | COc1ccccc1NS(=O)(=O)c1ccc(C(=O)NCCCn2ccnc2)cc1 | 7 | x | x | 14 | -7 | 0 | -4 | x
49 | COc1cccc(-n2nc(C(=O)Nc3ccc4c(c3)OCO4)c3ccccc3c2=O)c1 | -4 | i | 11 | -3 | x | 0 | -5 | 0

Next structures follow:
Second line of a record – CSC inhib, Rce1 inh, PABP polyA inh, Yeast UUG start, Env fusion inh, MT1-MMP act inh, MT1-MMP act inh RFP, eIF4H FP inh
51	COc1cccc(SCc2noc(C(=O)NCCN(C)C)c2C(=O)NCCN(C)C)c1
 : -3, i, x, -17, 6, 1, 1, x
52	Nc1nc(-c2cccnc2)nn1C(=O)CCc1ccccc1
 : -7, i, x, -11, 9, 0, 2, x
53	O=C(OCC(=O)N1CCCc2ccccc21)c1cc(Br)ccc1O
 : -7, i, x, x, 7, 1, 1, x
54	COc1ccc(C(=O)OCc2nnc(-c3ccccc3)o2)cc1S(=O)(=O)N1CCOCC1
 : 14, i, x, x, -13, 0, 2, x
55	O=C(CSc1ncn[nH]1)NNC(=O)c1ccccc1
 : x, i, x, -27, -14, 3, 6, x
56	CCC(C)CCN1C(Nc2ccccc2)=NC[C@@H]1C (stereo partly specified)
 : -2, i, 10, -6, -4, 3, 5, 2
57	COc1ccc(OC)c(C(=O)CSc2nc3cccnc3n2C)c1
 : -6, i, 11, -12, -3, -2, -7, -11
58	CC1(C(=O)NS(=O)(=O)c2cccc(C#N)c2)CCN1C(=O)C1(c2ccc(Cl)cc2)CCC1 (stereo unspecified)
 : x, x, x, -6, -1, 2, 2, x
59	Cc1ccc(C(=O)N/C(=C\c2ccccc2)C(=O)NCC2CCCO2)cc1 (stereo unspecified)
 : -6, i, -9, -15, 2, 0, 4, -3
60	Cc1nn(S(=O)(=O)c2cccc([N+](=O)[O-])c2)c(C)c1S(=O)(=O)N1CCOCC1
 : -8, i, 1, -10, -2, -1, 2, -9
